Screening results (PubChem)
CBX7 AlphaScr – CBX7 chromodomain binding inhibitors, primary screen, biochemical, AlphaScreen; AID 1224903, 2016; AlphaScreen His6-CBX7 / biotin-H3K27me3 peptide binding; hits give low values; Chromobox protein homolog 7 (Homo sapiens), O95931; normalised signal (fraction of DMSO) (concentration not given with the values); 66,000 tested, 1.1% active; in the data active = normalised signal below about 0.5;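 note: 100 nL library stock added to about 20 µL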
Target sequence (O95931 whole entry, looked up): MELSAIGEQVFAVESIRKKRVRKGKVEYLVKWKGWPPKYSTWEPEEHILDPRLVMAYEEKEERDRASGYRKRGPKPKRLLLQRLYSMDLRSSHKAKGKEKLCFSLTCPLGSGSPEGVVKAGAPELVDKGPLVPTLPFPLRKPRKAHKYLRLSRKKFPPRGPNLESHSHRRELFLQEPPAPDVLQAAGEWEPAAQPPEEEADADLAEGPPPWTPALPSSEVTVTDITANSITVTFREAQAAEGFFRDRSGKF
CBX7 AlphaScr z-score – further read-out of CBX7 AlphaScr, marked with its call; z-score; measured here: z-score of CBX7 signal; some inactives read as strong as hits; reference of the scale not given here;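 same signal on another scale; lower means less binding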
* marks the source's active call; other numbers are inactive results; & = joins results of further samples.

SMILES	CBX7 AlphaScr	CBX7 AlphaScr z-score
CCOc1ccccc1NC(=O)CCc1nc(-c2ccc(OC)cc2)no1	1.12	3.31
COC(=O)c1c(NC(=O)CN2CCCCCC2)sc2c1CCC(C)C2 (stereo not drawn)	1.03	0.872
O=C(NCc1ccc(Cl)cc1)c1cc(-c2ccc(F)cc2)on1	0.991	-0.413
O=c1oc2ccc(Br)cc2cc1-c1csc(Nc2ccc(Cl)cc2Cl)n1	1.02	0.287
COc1ccc(-c2nc(Nc3ccc(OC(F)(F)F)cc3)c3ccccc3n2)cc1OC	1.09	1.11
CCOc1ccc2nc(N3CCC(C(=O)N4CCN(c5cc(Cl)ccc5C)CC4)CC3)sc2c1	0.89	-1.03
CC(=O)Nc1ccc(Br)cc1-c1nc2ccccc2[nH]c1=O	1.08	1.23
CCOC(=O)CNC(=O)Cn1cnc2ccc(S(=O)(=O)N3CCC(C)CC3)cc2c1=O	1.05	0.484
FC(F)(F)c1ccc2nnc(-c3cccc(Cl)c3Cl)n2c1	0.92	-1.27
Cc1cccc(NC(=O)CCn2ccnc2C)c1	1.43	5.17
CCC(C(=O)Nc1nnc(-c2ccccc2F)s1)c1ccccc1 (stereo not drawn)	1.09	0.363
c1ccc(C(OCCn2cncn2)c2ccccc2)cc1	1.01	0.242
COc1cccc(NC(=O)C(NS(=O)(=O)c2ccc3c(c2)CCN3C(C)=O)C(C)C)c1 (stereo not drawn)	1.04	1.46
CCCCN(CC)CCCNC(=O)C1CCN(C(=O)c2cc3sccc3n2C)CC1	0.959	-0.744
Cc1cccc(C(=O)Nc2nnc(COc3ccc(C(C)(C)C)cc3)s2)c1	1.02	0.634
Cc1nc2c3ccccc3nc(N3CCCCC3)n2n1	1.11	1.82
COCCNC(=O)CN1C(=O)COc2ccc(S(=O)(=O)N3CC(C)CC(C)C3)cc21 (stereo not drawn)	1.03	0.75
COc1ccc(OC)c(NC(=O)CSc2nnc(CNC(=O)c3ccccc3F)o2)c1	1.04	1.3
Cc1nc2c(-c3ccccc3)c(C)nn2c(C)c1CCC(=O)Nc1ccccn1	1.01	0.147
Cc1ccccc1C(=O)Nc1ccccc1-c1nc2ccccc2s1	1.02	0.637
Cc1ccc(-c2noc(CCC(=O)NCCc3ccc(Cl)cc3)n2)cc1	1.24	3.68
O=C(CSc1nnc(-c2ccccc2Cl)o1)N1CCCCC1	1.12	1.29
COc1ccccc1CNC(=O)c1c(-c2ccccc2Cl)noc1C	1.03	1.17
CC(C)c1ccc(NC(=O)Cn2ncc3c2-c2ccccc2OC3)cc1	0.859	-1.77
Fc1ccc(-c2nnc3ccc(NCc4cccc(Cl)c4)nn23)cc1	0.985	-0.33
COc1ccc(N2CCN(C(=O)C3CCCN(C(=O)c4cc5sccc5n4C)C3)CC2)cc1 (stereo not drawn)	0.712	-8.27
Oc1ccccc1-c1nc(Nc2cccc(C(F)(F)F)c2)c2ccccc2n1	1.17	1.38
O=C(NCCCN1CCOCC1)c1cc(-c2ccc3c(c2)OCO3)on1	0.966	-0.474
CCCc1ccc(Oc2c(-c3ccc(OC)c(C)c3O)n[nH]c2C)cc1	0.686	-1.47
O=C(NCc1ccc2c(c1)OCO2)c1ccc(NC2=NC3CS(=O)(=O)CC3S2)cc1 (stereo not drawn)	0.822	-1.35
Cc1nn(-c2ccc(OC(F)(F)F)cc2)c2c1C(=O)CC(C)(C)C2	0.991	-0.157
COc1cccc(N2C(=O)C(CC(=O)Nc3ccccc3)N(Cc3ccc(OC)c(OC)c3)C2=O)c1 (stereo not drawn)	1	0.0122
C=CCN1C(=O)CSc2ccc(C(=O)NCc3ccc(C)cc3)cc21	1.03	0.724
COc1ccc(Cl)cc1NC(=O)CSc1nnc(CNC(=O)c2cccs2)o1	0.998	-0.0458
O=C(Nc1nncs1)c1cccc(S(=O)(=O)N2CCOCC2)c1	1.05	0.0511
CCN(CC)CCCNC(=O)C1CCN(Cc2nc(-c3ccc(Cl)cc3)oc2C)CC1	1.33	4.69
COc1ccccc1CNC(=O)CCc1c(C)nc2c(c(C)nn2-c2ccc(C)cc2)c1C	1.32	2.43
O=C(O)CCC(=O)N1CCc2cc(S(=O)(=O)NC3CCCc4ccccc43)ccc21 (stereo not drawn)	1.07	1.59
COc1ccccc1CN1C(=O)Cn2cccc2C1C(=O)NC1CCCCC1 (stereo not drawn)	1.09	1.82
O=C(NCC1CCCO1)c1cnn2c(C(F)F)cc(-c3ccccc3)nc12 (stereo not drawn)	1.03	0.961
COc1ccc(-c2nc(SCC(=O)Nc3ccc4c(c3)OCO4)c(-c3ccc(F)cc3)[nH]2)cc1OC	1.07	0.284
Cc1ccc(NC(=O)c2sc3ncn(CC(=O)N4CCCC4)c(=O)c3c2C)cc1F	1.08	0.91
CCOCCCNC(=O)CS(=O)(=O)Cc1nc(-c2ccc(C)cc2)oc1C	1.07	0.138
CCOC(=O)c1c2n(c3cc(Br)c(OC)cc13)CCN(c1cccc(Cl)c1)C2	1.06&0.725	0.131&-0.309
Cc1nnc(NC(=O)CSc2nccn2C)s1	0.932	-0.765
CCC(C)NC(=O)c1cc(-c2cccc(Cl)c2)on1 (stereo not drawn)	1.11	0.835
Cc1ccccc1CN1CCN(CC(=O)NCCCN2CCOCC2)C1=O	1	0.141
Cc1ccc(NS(=O)(=O)c2cnc[nH]2)cc1C	0.934	-0.844
Cc1ccc2nc(Nc3ccc(Br)cc3F)c(-n3nc(C)cc3C)nc2c1	0.998	-0.0432
CCc1ccccc1NC(=O)Cn1c(SCc2ccc(C)cc2)nc2ccncc21	1.1	0.399
O=C(NC1CCCCC1)C1c2cccn2CC(=O)N1Cc1ccc2c(c1)OCO2 (stereo not drawn)	0.991	-0.388
C=CCn1c(=O)c(C(=O)Nc2nc3ccc(Cl)cc3s2)c(O)c2ccccc21	0.993	-0.0456
COc1ccccc1OCC(=O)N1CCNC1=O	1.03	1.47
CCOc1ccc(C(=O)c2cn(Cc3ccc(Cl)cc3)c3cc4c(cc3c2=O)OCO4)cc1	0.751	-0.878
COCc1nnc(NC(=O)c2ccc(OC)c(OC)c2)s1	1.02	0.404
Cc1cccc(OCC(=O)Nc2ccc3nc(N4CCCCC4)cc(C)c3c2)c1	1.08	2.01
Cc1cc(C)c(C#N)c(Nc2ccc(Br)cc2)n1	1.05	2.2
Ic1ccc(Nc2nc3nonc3n3cnnc23)cc1	1	0.117
Cc1onc(-c2ccccc2Cl)c1C(=O)N1CC(C)OC(C)C1 (stereo not drawn)	1.1	4.09
Cc1cc(C(=O)Nc2c(C)cccc2C)n(-c2ccccc2)n1	1.19	2.97
Following part
SMILES	CBX7 AlphaScr	CBX7 AlphaScr z-score
Cc1cc(C)n(-c2nc3ccccc3nc2Nc2ccc(F)cc2C)n1	1.45	15.9
COc1ccc(-c2nc(C#N)c(NCC3CCCO3)o2)cc1 (stereo not drawn)	0.892	-1.19
O=C(Nc1cccnc1)c1cc(-c2ccc(Cl)c(Cl)c2)on1	1.06	1.83
Cc1ccc(S(=O)(=O)N2CCC(C(=O)NCCCO)CC2)cc1	1.05	2.12
O=C(C1CC(c2ccc(F)cc2)=NO1)N1CCOCC1 (stereo not drawn)	1.02	1.01
Cc1ccc(NC(=O)c2cc3n(n2)C(C(F)(F)F)CC(c2ccc(C)cc2)N3)cc1 (stereo not drawn)	1	0.0698
COc1cc(C(=O)Nc2ccc3nc(N4CCOCC4)cc(C)c3c2)ccc1Br	0.961	-0.264
Cc1nonc1OCCn1nnnc1N	1.02	0.242
O=C(CCCn1c(=O)c2sccc2n(Cc2cccnc2)c1=O)NCc1ccc2c(c1)OCO2	0.932	-1.12
CC(C)CCNC(=O)c1ccc2c(c1)N(Cc1ccc(Cl)cc1)C(=O)c1ccccc1S2(=O)=O	1	0.0668
CC(C)(C)C(=O)NCCCc1nc2ccccc2n1Cc1ccccc1F	1.04	0.403
CCOc1ccccc1CNC(=O)CCC(=O)Nc1ccc2nc(N3CCN(C)CC3)cc(C)c2c1	1.03	0.696
O=C(Nc1nc2ccccc2n1CCOc1ccccc1)c1ccccc1Cl	0.531	-5.03
O=C(NCc1ccc(Cl)cc1)c1nc2nc(-c3ccccc3)cc(C(F)(F)F)n2n1	0.985	-0.623
CCOC(=O)c1sc(NC(=O)COc2ccccc2OC)nc1C	1.16	3.23
COc1ccccc1NS(=O)(=O)c1cc(C(=O)c2ccc(Br)cc2)ccc1C	1.06	0.106
Fc1cccc(CSc2nc(Nc3ccc4c(c3)OCO4)c3ccccc3n2)c1	0.758	-0.677
Cc1c(C(=O)Nc2cccc(Cl)c2)oc2ccc(S(=O)(=O)N3CCC4(CC3)OCCO4)cc12	0.972	-0.384
Cc1cc(N2CCOCC2)nc2ccc(NC(=O)c3ccccc3Cl)cc12	0.93	-1.83
FC(F)(Cl)Oc1ccc(Nc2ccnc3cc(Cl)ccc23)cc1	1.14&1.16	1.64&0.702

Record cards (already shown). Order of values: CBX7 AlphaScr, CBX7 AlphaScr z-score
Record of O=C(C1CC(c2ccc(F)cc2)=NO1)N1CCOCC1 (stereo not drawn) : 1.02, 1.01
Record of Cc1c(C(=O)Nc2cccc(Cl)c2)oc2ccc(S(=O)(=O)N3CCC4(CC3)OCCO4)cc12 : 0.972, -0.384

New compounds follow
SMILES	CBX7 AlphaScr	CBX7 AlphaScr z-score
Cc1ccc(S(=O)(=O)N2CC=C(C(=O)Nc3ccc(C)cc3C)CC2)cc1	0.958	-0.544
Cc1ccc(OCC(=O)Nc2nccs2)c(Br)c1	1.2	0.464
Cc1c(C(=O)NC2CCCC2)oc2ccc(S(=O)(=O)N3CCC4(CC3)OCCO4)cc12	0.989	-0.108
CCCC(=O)NCCc1cc2ccc(C)c(C)c2[nH]c1=O	1.15	2.97
O=C(NCc1ccc(Cl)cc1)c1cc(-c2ccccc2)nc2ccccc12	1.08	0.176
CC(NC(=O)c1noc2c1CCCCC2)c1ccccc1 (stereo not drawn)	0.798	-2.4
CC1CCN(c2nc3ccc(C(=O)N4CCN(C5CCCCC5)CC4)cc3s2)CC1	1.21	1.98
CC1CCN(S(=O)(=O)c2ccc3ncn(CC(=O)Nc4cccc(Cl)c4)c(=O)c3c2)CC1	0.992	-0.198
Cc1ccc(-c2cc(C(=O)NCc3ccc4c(c3)OCO4)c3ccccc3n2)s1	0.741	-2.54
CCCc1sc(Nc2ccccc2OC)nc1-c1ccc(Cl)c(Cl)c1	0.824&0.925	-5.19&-0.83
COc1ccc(Cl)cc1NC(=O)CC1NCCNC1=O (stereo not drawn)	1.07	2.37
CC(C)(C)c1ccc(-c2nc(-c3cccnc3)no2)cc1	1.05	0.794
Cc1cc(-c2ccccc2)n2ncc(-c3cccc(Br)c3)c2n1	2.24	21.5
Cc1ccc(C)c(OCc2nc(-c3ccncc3)no2)c1	0.936	-0.0755
COCCn1c(SC)nnc1-c1c[nH]c2ccccc12	1.1	0.618
CCc1cccc(NC(=O)CN(C)S(=O)(=O)c2cccc3cccnc23)c1	0.978	-0.489
Cn1c(=O)c2nc(-c3ccc(Cl)cc3Cl)oc2c2ccccc21	1.02	0.393
OCC12CC3CC(C1)CC(CO)(C3)C2	0.784	-2.35
Cc1ccc(-c2ccc(=O)n(CC(=O)NCCN(CC(C)C)CC(C)C)n2)cc1	1.01	0.325
CCOC(=O)N1CCC(Nc2c(NCc3ccc(C)cc3)c(=O)c2=O)CC1	1.04	0.749

Arranged by heavy-atom count (ascending): part of the list above.
SMILES	CBX7 AlphaScr	CBX7 AlphaScr z-score
OCC12CC3CC(C1)CC(CO)(C3)C2	0.784	-2.35
Cc1ccc(OCC(=O)Nc2nccs2)c(Br)c1	1.2	0.464
COc1ccc(Cl)cc1NC(=O)CC1NCCNC1=O (stereo not drawn)	1.07	2.37
Cc1ccc(C)c(OCc2nc(-c3ccncc3)no2)c1	0.936	-0.0755
Cn1c(=O)c2nc(-c3ccc(Cl)cc3Cl)oc2c2ccccc21	1.02	0.393
CCCc1sc(Nc2ccccc2OC)nc1-c1ccc(Cl)c(Cl)c1	0.824&0.925	-5.19&-0.83
CCc1cccc(NC(=O)CN(C)S(=O)(=O)c2cccc3cccnc23)c1	0.978	-0.489
Cc1ccc(-c2cc(C(=O)NCc3ccc4c(c3)OCO4)c3ccccc3n2)s1	0.741	-2.54
CC1CCN(c2nc3ccc(C(=O)N4CCN(C5CCCCC5)CC4)cc3s2)CC1	1.21	1.98
Cc1c(C(=O)NC2CCCC2)oc2ccc(S(=O)(=O)N3CCC4(CC3)OCCO4)cc12	0.989	-0.108
CC1CCN(S(=O)(=O)c2ccc3ncn(CC(=O)Nc4cccc(Cl)c4)c(=O)c3c2)CC1	0.992	-0.198

Next records follow:
SMILES	CBX7 AlphaScr	CBX7 AlphaScr z-score
O=C(O)c1cccc(NC(=O)C23CC4CC(C2)CC(n2cnc(Cl)n2)(C4)C3)c1	0.982	-0.319
COc1ccc(NC(=O)C(c2ccccc2)N(C)C(=O)c2cnccn2)cc1 (stereo not drawn)	1.3	3.05
CC(C(=O)Nc1ccc2oc(-c3ccccc3F)nc2c1)(c1ccccc1)c1ccccc1	1.01	0.348
COc1ccccc1NC(=O)CCc1c(C)nc2cc(-c3ccc(Cl)cc3)nn2c1C	1.02	0.44
N#Cc1cnn2c(C(F)(F)F)c3c(nc12)CCCC3	1.05	0.162
CCOC(=O)N1CCC(N2C(=O)c3ccc(C(=O)Nc4ccccc4F)cc3C2=O)CC1	1.01	0.428
COc1ccc(-c2cn(-c3ccc(C)cc3)c(S(=O)(=O)CC(=O)Nc3ccc(Cl)cc3)n2)cc1	0.993	-0.0682
CCOc1ccc2nc(N3CCC(C(=O)Nc4ccc(C)cc4C)CC3)sc2c1	1.06	2.59
Cc1cc(Nc2ccc(F)c(F)c2)nc(-c2ccccc2O)n1	1.03	0.561
COc1ccccc1OCc1nc(-c2ccccn2)no1	0.928	-0.0849
CCCCNC(=O)c1cc(-c2ccccn2)nc2ccc(S(=O)(=O)N3CCOCC3)cc12	1.01	0.104
Cc1ccccc1C1CC(=O)Nc2cc3c(cc21)OCO3 (stereo not drawn)	0.968	-1.27
Cc1ncc(CO)c2cc(-c3nnc(Nc4ccc(F)cc4)s3)c(=O)oc12	1.03	0.207

These rows are one share of the data; rates above refer to the full screens.
